Mtb hypoxia inh: reduces hypoxia-regulated biosensor signal in M. tuberculosis; M. tuberculosis hypoxia-regulated fluorescent reporter, fluorescence; fluorescence inhibition, % (no concentration beside the values); actives 0.1% (n = 300,000);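 active means 35 to 45% if threefold the growth effect, above 45% if 1.5-fold the growth effect; inactive means the rest, general growth blockers included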;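 further: wells of about 50 µL received 100 nL stock; 0% = vehicle wells and 100% = reference inhibitor wells; whole bacteria with a GFP reporter of the hypoxia response; strong numbers were not always called active; many hits fall short of the cut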
ugtP null kill: kills S. aureus RN4220 lacking UgtP; S. aureus RN4220 ugtP deletion, OD600 growth, 16 h; some inactives read as strong as hits; growth inhibition, % (concentration not given with the values); actives 0.54% (n = 330,000);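 active means z-score under -3 and OD600 up to 0.15 on both plates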;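 further: plate controls were untreated wells for no effect and antibiotic for full effect; wells of about 80 µL received 100 nL stock; the first replicate is given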
PrP 5UTR inh: suppresses PrP 5' UTR mRNA reporter expression. inhibition, % (test concentration not listed). actives 0.35% (n = 340,000). cell-based PrP 5' UTR mRNA reporter, plate reader;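 active means every replicate at 50% or more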;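 further: 0 = median of the neutral control wells; tested in H4 reporter cells; numbers are from one replicate; inactives centre near -14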
Bead autofluor: counter-screen for toxin protease inhibitors: compound fluorescence; compound autofluorescence counterscreen, microsphere flow cytometry; stronger effect = higher value; fluorescence intensity (no concentration beside the values); actives 3.1% (n = 360,000);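 active means at least 3 SD above the mean of all compounds, about 16000 in these data; inconclusive means too few beads counted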;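 further: 100 nL of 1 mM stock went into each well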
BJeLR viability: kills HRASV12-expressing BJeLR cells | BJeLR (HRASV12) viability, CellTiter-Glo ATP luminescence, 48 h; reference of the scale not given here | inhibition, % (concentration not given with the values) | actives 0.17% (n = 300,000) | AID 1554;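 active means replicate mean above 50%; inconclusive means above 50% but judged a plate artefact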;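 further: 50 nL library stock added to about 25 µL; numbers are from one replicate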
RN4220 kill: kills Staphylococcus aureus RN4220; S. aureus RN4220 growth, OD600, 16 h; inhibition, % (test concentration not listed); actives 0.33% (n = 330,000); AID 1259311;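 active means z-score of -3 or lower and OD600 up to 0.18 on both plates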;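 further: plate controls were untreated cells for no effect and reference antibiotic for full effect; stock transfer was 100 nL into about 80 µL; one replicate is shown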
Mtb hypoxia inh growth: further read-out of Mtb hypoxia inh, marked with its call; growth inhibition, %; measured here: M. tuberculosis growth (absorbance);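 0% = vehicle and 100% = reference antibiotic; read after six days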
* = called active by the depositor; ? = inconclusive; nt = no result given.

SMILES	Mtb hypoxia inh	Mtb hypoxia inh growth	ugtP null kill	PrP 5UTR inh	Bead autofluor	BJeLR viability	RN4220 kill
Cc1cc(C)c(C#N)c(SCC(=O)OC2CCCCC2)n1	4	-2	-17	-8	6930	-7	6.4
NC(=O)C1CCN(C(=O)c2ccc(NS(=O)(=O)c3ccc(F)c(F)c3)cc2)CC1	-5	-3	-5	-5	3955	nt	-5.1
CSCCC(NS(=O)(=O)c1cccc(C(F)(F)F)c1)C(=O)N(C)CCOc1ccc(Cl)cc1 (stereo not drawn)	5	6	2	0	5701	6	-5.3
C[C@]12CC[C@H]3C(CCC4(O)CC(O)CC[C@]34C=O)C1=CC[C@H]2c1ccc(=O)oc1 (stereo partly drawn)	-4	7	-4	nt	3604	14	5.5
CCO[C@H]1OC(C(=O)N2CCN(Cc3ccccc3)CC2)=C[C@@H](c2coc3ccccc3c2=O)[C@@H]1CCCO	nt	nt	nt	-20	3496	9	nt
O=C(NN=Cc1ccc(Cl)cc1Cl)c1cccc(F)c1	4	-9	19	nt	nt	nt	19
COc1cc(C(=O)NC2CC3CCCC(C2)N3Cc2ccccc2)cc(OC)c1OC (stereo not drawn)	-7	-1	8	-19	4338	-4	2.5
CCOC(=O)/C(C(C)=O)=C1/OC(=O)c2ccccc21	2	7	12	-28	13179	-1	5.4
Cc1cc(-c2ccc(N)c(C)c2)ccc1N	-3	10	11	-6	5934	nt	2.6
COc1cc(C=NNC(=O)C(Cc2c[nH]c3ccccc23)NC(=O)OCc2ccccc2)cc([N+](=O)[O-])c1O (stereo not drawn)	6	-13	-14	nt	nt	nt	-5.2
COc1ccc(NC(=O)c2ccco2)cc1NC(=O)c1ccccc1[N+](=O)[O-]	2	-2	7	14	?	2	1.2
COc1ccc(-n2nnnc2/C=C/Nc2cc(C(F)(F)F)ccc2OC)cc1	3	12	-17	-5	5487	0	-4.0
CCC(CO)Oc1cc(NC(=O)c2ccc(OC)cc2)c2ncn(C(C)C)c2c1 (stereo not drawn)	5	8	17	0	4309	nt	1.6
CCCCCn1c(N2CCC(C(N)=O)CC2)nc2c1c(=O)[nH]c(=O)n2C	nt	nt	3	-9	4563	-4	-0.2
Cc1ccc(C)c(-c2nnc(NC(=O)C3=COCCO3)o2)c1	-5	6	6	-18	?	4	5.4

In another format: results already given
Under each structure – Mtb hypoxia inh	Mtb hypoxia inh growth	ugtP null kill	PrP 5UTR inh	Bead autofluor	BJeLR viability	RN4220 kill
> CCOC(=O)/C(C(C)=O)=C1/OC(=O)c2ccccc21
 : 2	7	12	-28	13179	-1	5.4
> COc1ccc(NC(=O)c2ccco2)cc1NC(=O)c1ccccc1[N+](=O)[O-]
 : 2	-2	7	14	?	2	1.2
> CCCCCn1c(N2CCC(C(N)=O)CC2)nc2c1c(=O)[nH]c(=O)n2C
 : nt	nt	3	-9	4563	-4	-0.2

Following part
SMILES	Mtb hypoxia inh	Mtb hypoxia inh growth	ugtP null kill	PrP 5UTR inh	Bead autofluor	BJeLR viability	RN4220 kill
COc1ccc(CC(=O)NCC2(c3ccc(OC)c(OC)c3)CCCC2)cc1	6	6	-3	-18	4180	5	4.8
COc1cccc(NC(=O)C2CCCN(S(=O)(=O)c3cccc4nsnc34)C2)c1 (stereo not drawn)	nt	nt	5	-18	4907	2	-2.9
COc1ccccc1NS(=O)(=O)c1cc(C)ccc1C	nt	nt	-5	-6	4468	6	7.4
CC1CN(C(C)CO)C(=O)c2cc(NS(=O)(=O)c3ccc(F)cc3)ccc2OC1CN(C)C(=O)NC1CCCCC1 (stereo not drawn)	-3	-1	-2	nt	nt	nt	-0.4
CCOC(=O)C1=CN(Cc2cccc(F)c2)S(=O)(=O)N(C)C1c1cccc(OC)c1 (stereo not drawn)	-3	2	2	-19	3507	nt	0.3
O=C(O)c1nn(Cc2nc3ccccc3o2)c(=O)c2ccccc12	-10	4	7	-12	3954	-13	5.3
COc1cc(C2C(C(=O)c3cccs3)=C(O)C(=O)N2Cc2ccco2)cc(OC)c1OC (stereo not drawn)	-2	4	-1	-9	3147	-5	-16
O=C(CN1CCN(S(=O)(=O)c2ccc(Br)cc2)CC1)NN=Cc1ccncc1	5	3	7	nt	nt	nt	2.7
CCOc1ccccc1NC(=O)CCN1CCN(S(=O)(=O)c2ccc(Br)cc2)CC1	nt	nt	7	-6	3536	-1	3.1
COc1cc(OC)c(OC)cc1/C=N/n1c(COc2ccccc2)n[nH]c1=S	nt	nt	nt	-9	3581	3	nt
CSc1nc(-c2ccccc2)nc(NC(C)=O)c1C(C)=O	-4	0	-13	-12	4602	0	-1.6
COc1ccc(Cc2nnc(SCC(=O)Nc3ccccc3C)n(N)c2=O)cc1	-11	-10	0	11	?	5	1.2
O=C(CSCc1ccccc1)N1CCN(S(=O)(=O)c2cccc(F)c2)CC1	nt	nt	nt	-43	?	2	nt
CCCn1nnnc1NCc1ccc(N(C)C)cc1	6	10	10	-53	4260	0	2.2
O=C(COC(=O)CCc1c[nH]c2ccccc12)NCc1ccccc1	5	7	-1	-16	2761	-10	3.3
COc1ccccc1OCCSc1nc2ccccc2n1CCC(=O)O	2	1	6	-22	3101	5	4.7
Nc1nnc(SCc2ccc([N+](=O)[O-])cc2)s1	-3	2	3	-23	2219	3	2.6
CSc1nc2ncncc2[nH]1	3	9	2	-29	3583	nt	-0.5
O=C(O)C(c1ccccc1)N1CCCCC1 (stereo not drawn)	18	6	5	-32	4419	-4	2.8
CC(=O)N1CCc2cc(Br)cc(S(=O)(=O)NCc3ccc(Cl)cc3)c21	1	4	2	-11	4027	-5	3.2
Cc1ccnc(NC(=O)CCC(=O)N(CC(=O)NCc2ccccc2)Cc2ccccc2)c1	-1	3	4	-4	5538	-4	2.6
CSc1ccccc1NC(=O)c1ccc(N2CC3CC(C2)c2cccc(=O)n2C3)c(NC(=O)c2cccnc2)c1 (stereo not drawn)	2	-6	11	-5	4223	19	4.8
COc1c(Cl)cc(Cl)cc1/C=N/n1cnnc1	nt	nt	nt	-20	8806	-1	nt
CCc1c(C)nc2ncnn2c1N1CCN(S(=O)(=O)c2ccc(OC)cc2)CC1	2	0	-4	0	3480	16	6.6
COc1cc(Cl)cc(CN2CCC(CCC(=O)NC3CC3)CC2)c1OC	-4	-1	7	-51	3302	2	1.0
COc1cc2c(cc1OC)C(Nc1ccc(S(N)(=O)=O)cc1)=NC(C)(C)C2	12	3	9	-22	2112	17	4.0
O=C(NCCc1ccccn1)c1n[nH]c(=O)c2ccccc12	2	9	-5	-33	22070*	5	5.1
COc1cccc(O)c1CN1CCC(Oc2ccc(C(=O)NCc3ccccn3)cc2)CC1	-1	-13	6	-8	5757	1	-1.6
CC1CCCC(NC(=O)CN2CCN(S(=O)(=O)c3ccc(Br)s3)CC2)C1C (stereo not drawn)	-1	1	2	-8	4243	nt	2.6
NC(=O)c1ccc(Oc2ccc3ccc(=O)oc3c2)c([N+](=O)[O-])c1	nt	nt	nt	7	4453	3	nt

Whole records, looked up by structure. Values in the order: Mtb hypoxia inh | Mtb hypoxia inh growth | ugtP null kill | PrP 5UTR inh | Bead autofluor | BJeLR viability | RN4220 kill
`O=C(CN1CCN(S(=O)(=O)c2ccc(Br)cc2)CC1)NN=Cc1ccncc1` as listed: 5 | 3 | 7 | nt | nt | nt | 2.7
`CCc1c(C)nc2ncnn2c1N1CCN(S(=O)(=O)c2ccc(OC)cc2)CC1` as listed: 2 | 0 | -4 | 0 | 3480 | 16 | 6.6

Next compounds:
SMILES	Mtb hypoxia inh	Mtb hypoxia inh growth	ugtP null kill	PrP 5UTR inh	Bead autofluor	BJeLR viability	RN4220 kill
Cc1csc(=O)n1CCC(=O)OCC(=O)N(CC(C)C)c1c(N)n(Cc2ccccc2)c(=O)[nH]c1=O	2	1	2	6	5227	4	-0.8
COc1ccc(S(=O)(=O)N2CCCOC2CNC(=O)C(=O)NCc2ccco2)cc1C (stereo not drawn)	7	-2	2	-7	1985	-15	5.6
CCOC(=O)C1CCCN(C(=O)c2cccc(S(=O)(=O)N(C)c3c(C)n(C)n(-c4ccccc4)c3=O)c2)C1 (stereo not drawn)	-1	3	6	-1	3800	12	2.3
O=C(CNC(=O)c1ccc(Cl)cc1Cl)Nc1ccc(F)cc1	11	3	-2	-13	4432	-1	2.1
COc1ccc(-c2noc(CCC(=O)NCc3cccnc3)n2)cc1OC	-5	-6	-3	-5	9256	7	-1.2
CCOc1cccc(NC(=O)/C(C#N)=C\c2cccnc2)c1	-8	-3	4	0	3367	-5	3.8
CC(C)CC(NC(=O)c1nc[nH]c1C(=O)N1CCN(C(=O)OC(C)(C)C)CC1)C(=O)OCc1ccccc1 (stereo not drawn)	1	-3	5	nt	nt	nt	6.5
Cc1c(C)n(CCc2ccccc2)c2ncnc(NN)c12	6	9	10	-13	3202	-2	1.5
CC1C(=O)Nc2ccc(S(=O)(=O)Nc3ccccc3Br)cc2NC1=O (stereo not drawn)	8	4	-2	24	5748	-3	6.1
Cc1cc(OC(C)C(=O)NCC2CCC(C(=O)O)CC2)c2c(C)c(C)c(=O)oc2c1 (stereo not drawn)	nt	nt	3	-29	5722	1	-0.2
Cc1ccccc1CS(=O)(=O)CCC(=O)NCc1ccc(F)cc1Cl	9	1	0	-14	5309	9	1.6
Cc1cccc(CSc2ncnc3c2cnn3Cc2ccccc2)c1	5	15	98*	-39	6181	3	-8.0
O=C(O)C(=Cc1ccccc1[N+](=O)[O-])c1ccccc1	15	7	7	-15	3021	nt	4.2
CCC(C)(C)C1CCC(=NNC(=O)c2ccoc2C)CC1 (stereo not drawn)	nt	nt	7	-8	4107	19	1.3
COc1cccc(C(=O)C2CCCN(Cc3ccc4nonc4c3)C2)c1 (stereo not drawn)	5	-1	10	-9	4727	-11	-6.4
Cn1c(SCC(=O)NC(=O)NCc2ccccc2)nnc1C(F)(F)F	6	1	5	-28	8539	nt	3.1
N#Cc1c(NCc2ccccc2)ccnc1Cl	14	17	3	-9	5761	0	1.9
CCOC(=O)C1CCCN(C(=O)COc2ccc(C(=O)c3ccc(F)cc3)cc2)C1 (stereo not drawn)	3	5	7	-15	8114	nt	5.6
CC1CCCN(C(=O)Nc2ccc(Br)cc2Cl)C1 (stereo not drawn)	4	5	6	-61	2603	9	3.4
CCCOc1ccccc1N/C(=N\S(=O)(=O)c1ccc(C)cc1)Nc1nc(C)cc(C)n1	nt	nt	nt	3	3523	2	nt
CCC1CCCCN1S(=O)(=O)c1ccc(S(=O)(=O)N2CCN(S(=O)(=O)CC)CC2)cc1 (stereo not drawn)	nt	nt	4	-23	4282	5	4.0
CN(C)C(=O)c1ccc(NC(=O)COC(=O)/C=C/c2cccs2)cc1	-3	-6	-5	-10	?	-4	1.1
O=[N+]([O-])c1cccc2ccc(/C=C/c3ccc(C(F)(F)F)cc3)nc12	6	3	5	-33	2613	3	-6.1
O=C1C2CCCN2C(c2cccs2)N1c1ccc(Cl)cc1 (stereo not drawn)	10	6	1	-18	4218	-5	0.9
CC(C)c1nc(C(=O)N2CCc3c([nH]c4ccccc34)C2c2ccccn2)cs1 (stereo not drawn)	8	10	4	-27	3654	-5	5.7
CCCn1c(CN(C)Cc2ccccc2)nc2c1c(=O)n(C)c(=O)n2C	7	7	-1	8	4573	7	0.8
O=C(C(=NO)n1cncn1)c1ccc(Br)cc1Br	-8	-3	3	nt	nt	nt	3.3
CCCOc1cccc(-c2cc(-c3n[nH]c(=S)n3CC)c3ccccc3n2)c1	1	3	22	-7	8255	8	6.2
Cn1c(=O)c2ccccc2n(CC(=O)Nc2ccc3c(c2)OCCO3)c1=O	-9	5	9	7	2969	-13	6.5
O=C(Cn1c(=O)[nH]c2sc3c(c2c1=O)CCCC3)NCC1CCCO1 (stereo not drawn)	2	-6	1	2	4456	-6	2.3
CN(C)c1ccc(C(=O)Nc2cccc(S(=O)(=O)NC3=NCCCCC3)c2)cc1	6	10	3	-33	7959	nt	-1.6
CC(c1ccccc1)N1C(=O)NC(NC(=O)C(C)(C)C)(C(F)(F)F)C1=O (stereo not drawn)	3	-2	2	-2	2584	7	3.3
CN(C(=O)COC(=O)C12CC3CC(CC(C3)C1)C2)c1c(N)n(Cc2ccccc2)c(=O)[nH]c1=O	8	-4	3	-10	2911	nt	0.7
COc1ccc(S(=O)(=O)NCC2CCCN(C(=O)c3cccnc3)C2)cc1 (stereo not drawn)	21	-7	4	-43	4250	-3	2.1
O=C(Nc1ccc(Br)cc1)c1ccc(N2C(=O)C3CC=C(Cl)CC3C2=O)cc1 (stereo not drawn)	nt	nt	-16	-15	2688	1	2.6
O=C(N/N=C/c1ccc2c(c1)OCO2)c1cccs1	nt	nt	nt	-105	2002	4	nt

From PubChem
